# High-throughput results deposited in PubChem BioAssay by several laboratories.
# PABP FP inh: PABP-poly(A) binding inhibition. 290,000 tested, 1% active. P11940. PABP-poly(A) RNA binding, fluorescence polarization. AID 2014. inhibition, % at 35 µM;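 active = 50% or more with normal probe brightness, or confirmed in later tests; about a fifth of its hits are not listed in these tables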;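 note: calls also rest on retests at 20 µM and on dose response follow-up; controls were probe without protein and protein plus probe with vehicle; some compounds called inactive have numbers as strong as hits; many hits fall short of the cut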
# Target sequence (P11940 whole entry, looked up): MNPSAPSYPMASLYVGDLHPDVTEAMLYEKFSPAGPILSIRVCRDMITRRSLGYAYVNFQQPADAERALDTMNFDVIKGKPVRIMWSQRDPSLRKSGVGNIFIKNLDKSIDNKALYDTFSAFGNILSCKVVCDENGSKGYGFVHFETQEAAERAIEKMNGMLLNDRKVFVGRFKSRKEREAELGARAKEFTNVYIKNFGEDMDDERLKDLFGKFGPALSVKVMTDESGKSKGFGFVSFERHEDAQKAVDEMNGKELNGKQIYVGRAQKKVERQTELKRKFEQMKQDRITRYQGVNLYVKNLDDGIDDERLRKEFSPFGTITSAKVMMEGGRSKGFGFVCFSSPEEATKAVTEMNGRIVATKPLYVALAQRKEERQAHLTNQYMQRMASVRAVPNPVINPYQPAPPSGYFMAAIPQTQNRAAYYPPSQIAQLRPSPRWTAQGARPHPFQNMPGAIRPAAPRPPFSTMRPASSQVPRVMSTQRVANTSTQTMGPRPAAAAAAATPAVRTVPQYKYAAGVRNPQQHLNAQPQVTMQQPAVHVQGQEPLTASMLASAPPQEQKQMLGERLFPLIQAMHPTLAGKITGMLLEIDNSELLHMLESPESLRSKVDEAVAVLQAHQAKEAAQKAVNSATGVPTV
# Env fusion inh: blocks HIV Env-driven cell-cell fusion; HeLa-JRFL Env/CEM21 cell fusion, luciferase; inhibition, % at 12.3 µM; 360,000 tested, 1.1% active; AID 651610;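 active = mean replicate inhibition score of at least 50 and every replicate individually at or above 50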;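 note: 0% = plate neutral controls and 100% = maraviroc near 300 nM; one replicate is shown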
# Yeast UUG start: modulators of start codon recognition fidelity in yeast; activity score, % at 18.7 µM; S. cerevisiae UUG-firefly luciferase reporter, luminescence/redox ratio; 350,000 tested, 0.13% active; AID 602363;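 active = replicate mean at a twofold rise or more, about +100% in these data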;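 note: firefly luciferase made from a UUG start codon reports start codon fidelity; reporter light over untreated wells divided by growth signal over untreated wells; some hits fall short of that in this replicate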
# CSC inhib: cancer stem cell inhibition | inhibition, % at 7.5 µM | 300,000 tested, 1.1% active | cancer stem cell-like cells viability, luminescence;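 active = mean at 75% or more and at least half the replicates too; tested in HMLE shEcad cells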;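 note: 0% = median of negative and 100% = median of positive control wells; the first replicate is given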
# Rce1 inhib: blocks yeast Ras-converting enzyme. Q03530. yeast membranes, quenched prenylated peptide cleavage fluorescence. calls only. 290,000 tested, 0.27% active;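 active = fall in fluorescence gain of 50% or more versus controls, with final raw signal at or below 3038400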;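 note: plate controls were neutral control wells for no effect and wells lacking membranes for full effect; tested at 10 µM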
# MT1-MMP act inh: MT1-MMP (human) activation inhibition; 360,000 tested, 0.061% active; HT1080 RFP-PRO-GFP cells, GFP/RFP ratio fluorescence, overnight; percent of plate control window, DMSO zero; GFP/RFP ratio change, % at 20 µM;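 active = GFP/RFP ratio change of at least 30% with cell ATP level not reduced by more than half and red fluorescence within 50% of control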; note: strong numbers were not always called active
#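 Material – HT1080 RFP-PRO-GFP cells · Control set – DMSO wells and RFP-L50D-GFP cells · Incubation – overnight cell settling, then overnight compound exposure, 37 °C, 5% CO2 · Compound dosing – single-point 20 µM compound, 1% DMSO · Read-out – GFP/RFP fluorescence ratio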
# eIF4H inh: inhibitors of RNA binding by human eIF4H; Q15056; eIF4H fluorescence polarization binding assay; inhibition, % at 35 µM; 290,000 tested, 0.94% active;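 active = 50% or more with normal probe brightness, or confirmed in later tests; about a fifth of its hits are not listed in these tables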;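 note: calls also rest on retests at 20 µM and on dose response follow-up; 0% = protein and probe with vehicle and 100% = probe without protein; strong numbers were not always called active; many hits fall short of the cut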
# MT1-MMP act inh RFP: second read-out of MT1-MMP act inh, no call of its own (marks repeat the call); RFP signal change, %; measured here: RFP expression control read;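 0 = vehicle wells; hits needed this value within 50% of zero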
# Active calls of the source: *; i = inactive; nt = not tested or not shown; & = joins results of further samples; [ ] = dose if it differs, or a comment.
SMILES,PABP FP inh,Env fusion inh,Yeast UUG start,CSC inhib,Rce1 inhib,MT1-MMP act inh,MT1-MMP act inh RFP,eIF4H inh
COc1cc(NC(=O)COC(=O)CC(NC(C)=O)c2ccccc2)cc(OC)c1 (stereo unspecified),12,-10,-14,-39,i,-2,-1,-5
COC(=O)c1ccccc1NC(=O)c1nc2nc(C)cc(C(F)F)n2n1,-12,nt,nt,-13,i,0,4,-4
OC(c1ccc2ccccc2c1)c1ncc(-c2ccc(C(F)(F)F)cc2)[nH]1 (stereo unspecified),nt,26,-3,nt,nt,8,1,nt
Cc1ccccc1NS(=O)(=O)c1ccc(OCC(=O)NCc2cccnc2)cc1,-4,nt,nt,10,i,4,2,-7
CCOC(=O)C1=C(C)N(c2ccccc2)C(=O)NC1c1cccc([N+](=O)[O-])c1 (stereo unspecified),-6,-31,-21,2,i,1,3,9
O=C(COC(=O)C1(c2ccccc2F)CCCC1)N1CCN(C(=O)c2ccco2)CC1,-1,nt,5,-9,i,4,1,8
CCOC(=O)N1CCC(N2C(=O)c3ccccc3C2Nc2ccc(Cl)cn2)CC1 (stereo unspecified),-9,-13,29,38,i,-3,-2,2
Cc1cc(C)n(C(=O)c2ccc([N+](=O)[O-])cc2[N+](=O)[O-])n1,-3,-46,nt,3,i,4,5,0
Cc1ccc(NC(=O)COC(=O)CN2CCCCCC2=O)cc1C,nt,-1,-17,nt,nt,2,-1,nt
Cc1ccc(N(C(C)C(=O)N2CCOCC2)S(C)(=O)=O)cc1C (stereo unspecified),2,7,nt,-5,i,0,1,1
COc1ccc2c(c1)CCCC21SC(NC(C)=O)=NN1C(C)=O (stereo unspecified),0,21,nt,-7,i,4,4,-14
CCCOC(=O)CCc1n[nH]c(=O)[nH]c1=O,-3,nt,-16,-3,i,-1,3,3
Cc1noc(C)c1COC(=O)COc1ccc2c(C)cc(=O)oc2c1,-7,-53,-8,-9,i,4,3,2
O=C(NCC(c1cccs1)N1CCOCC1)C1CCN(S(=O)(=O)c2c(Cl)cccc2Cl)CC1 (stereo unspecified),nt,6,nt,0,i,1,-2,nt
CC(C)(CN1CCCC1)NC(=O)C1CCC(=O)N(CCCN2CCOCC2)C1 (stereo unspecified),-11,1,5,3,i,-4,1,-12
Cc1ccc(C(=O)NCC(=O)OCC(=O)c2cc(C)n(Cc3ccco3)c2C)cc1,0,-12,1,-2,i,0,1,9
COc1ccc(NC(=O)C2CCCN2S(=O)(=O)c2ccc(C)cc2)cc1 (stereo unspecified),-2,-8,7,-6,i,6,0,5
O=C(COc1cc(F)ccc1[N+](=O)[O-])Nc1ccc(N2CCOCC2)cc1,22,10,nt,2,i,-1,0,5
CCn1c(SCC(=O)N2CCN(C)CC2)nc2c1c(=O)n(C)c(=O)n2C,-20,-40,-17,-4,nt,3,3,-10
CCC(C(=O)Nc1cc(Cl)c(OC)cc1OC)c1ccccc1 (stereo unspecified),8,5,-13,1,i,5,1,-4
COc1cccc(C(O)Cc2nc3ccccc3n2C)c1OC (stereo unspecified),-9,-13,-8,8,i,5,4,-5
CCOC(=O)C(C)n1cnc2c(oc3ccccc32)c1=O (stereo unspecified),1,-4,-13,-14,i,-4,0,-5
Cc1c(NC(=O)CSc2nc3c(cnn3-c3ccccc3)c(=O)[nH]2)c(=O)n(-c2ccccc2)n1C,-3,16,nt,-15,i,5,5,-4
Cc1ccc(CNC(=O)CO/N=C/c2ccc(C(C)(C)C)cc2)cc1,5,31,nt,13,i,-5,-3,-9
Cc1c(C(=O)O)oc2ccc(S(=O)(=O)NCc3ccc(F)cc3)cc12,6,15,nt,4,i,-1,1,-5
Cc1ncc(N=Nc2ccccc2Cl)c(-c2ccccc2)n1,5,nt,-14,-4,i,15,10,-3
O=C(Nc1ccc(Oc2cccnc2)cc1)C1CCN(Cc2cccc(Cl)c2)CC1,7,3,-17,4,i,5,-10,4
N#CC1=C(N)Oc2n[nH]c(-c3ccc(F)cc3)c2C1c1cccc(OC(=O)N2CCOCC2)c1 (stereo unspecified),-6,-2,-11,-12,i,2,5,-8
COc1ccccc1CNC(=O)c1ccc(CS(=O)(=O)c2ccccc2OC)o1,-4,-138,1,-7,i,7,3,-2
O=C(Cc1c(F)cccc1Cl)N1CCN(S(=O)(=O)c2cccc(F)c2)CC1,nt,nt,-6,-4,i,-1,3,nt
CC1(C)Oc2cc3oc(-c4cc(O)cc(O)c4)cc3cc2CC1O (stereo unspecified),nt,nt,-84,3,i,0,-2,nt
CCOC(=O)c1c(NC(=O)CN2C(=O)NC(C)(c3ccc(OC(F)F)cc3)C2=O)sc(C)c1C (stereo unspecified),-1,16,nt,41,i,-3,-6,-10
O=P(O)(CCCP(=O)(O)CCc1ccccc1)CCc1ccccc1,1,nt,10,-12,i,0,0,-6
CN(C/C=C/C#CC(C)(C)C)Cc1cccc2ccccc12,nt,22,-20,4,i,0,0,nt
COC(=O)c1[nH]c2ccc(C)cc2c1NC(=O)CN1CCCC(C)(C)C1,-1,nt,-7,-12,i,1,-4,-10
CCOc1ccc(C2/C(=C(\O)c3cccc(OC)c3)C(=O)C(=O)N2c2cc(C)on2)cc1OC (stereo unspecified),14,nt,-17,-9,i,0,2,8
COc1ccc(Cn2c(-c3ccc(C)cc3)c[n+]3ccccc23)cc1,-5,28,-17,5,i,-13,-30,-3
Cc1cc2oc(=O)cc(CN3CCN(C/C=C/c4ccccc4)CC3)c2cc1O,-4,-11,4,-7,i,1,-7,12
Cc1ccc(/C=C/C(=O)N2CCN(S(=O)(=O)c3c(C)c(C)cc(C)c3C)CC2)o1,-7,-16,nt,33,i,-1,-4,6
Cc1c(Br)c([N+](=O)[O-])nn1CC(=O)N1CCCc2ccccc21,-13,nt,3,-20,i,6,0,-2

# Ordered by heavy-atom count (low to high): some entries from above
SMILES,PABP FP inh,Env fusion inh,Yeast UUG start,CSC inhib,Rce1 inhib,MT1-MMP act inh,MT1-MMP act inh RFP,eIF4H inh
Cc1ncc(N=Nc2ccccc2Cl)c(-c2ccccc2)n1,5,nt,-14,-4,i,15,10,-3
Cc1ccc(CNC(=O)CO/N=C/c2ccc(C(C)(C)C)cc2)cc1,5,31,nt,13,i,-5,-3,-9
O=C(Cc1c(F)cccc1Cl)N1CCN(S(=O)(=O)c2cccc(F)c2)CC1,nt,nt,-6,-4,i,-1,3,nt
O=C(Nc1ccc(Oc2cccnc2)cc1)C1CCN(Cc2cccc(Cl)c2)CC1,7,3,-17,4,i,5,-10,4
CCOC(=O)c1c(NC(=O)CN2C(=O)NC(C)(c3ccc(OC(F)F)cc3)C2=O)sc(C)c1C (stereo unspecified),-1,16,nt,41,i,-3,-6,-10
Cc1c(NC(=O)CSc2nc3c(cnn3-c3ccccc3)c(=O)[nH]2)c(=O)n(-c2ccccc2)n1C,-3,16,nt,-15,i,5,5,-4

# The list goes on.
SMILES,PABP FP inh,Env fusion inh,Yeast UUG start,CSC inhib,Rce1 inhib,MT1-MMP act inh,MT1-MMP act inh RFP,eIF4H inh
CC(C)(C)NC(=O)CN(Cc1ccco1)C(=O)CCC(=O)Nc1nccs1,-9,0,14,-4,nt,0,-3,-7
CC(=O)Nc1ccc(S(=O)(=O)N2C(C)CCCC2C)cc1 (stereo unspecified),9,8,-10,-7,i,2,2,5
CC1CCc2c(sc(NC(=O)COC(=O)C3CCCO3)c2C#N)C1 (stereo unspecified),-6,-6,nt,14,i,-4,-1,-5
O=C(OCC#CCSc1nnc(-c2ccc(Br)cc2)o1)c1cccs1,1,nt,nt,18,i,12,3,-13
O=C(COc1ccc(F)cc1)N(Cc1cccs1)C1CCS(=O)(=O)C1 (stereo unspecified),-10,17,-9,nt,i,2,1,-10
O=C(O)c1ccc(/C=N/NC(=S)NCc2ccccc2)cc1,0,-2,nt,-6,i,-2,-1,-8
CCCCN(CC)Cc1c(C)[nH]c2c(ccc3ccccc32)c1=O,-6,-6,-14,-2,i,1,-5,-6
CCCCn1c(N)c(Br)c(=O)[nH]c1=O,-4,0,-26,5,i,1,1,-4
CCC(NC(=O)c1ccccc1NC(=O)c1ccco1)C(=O)NNC(=O)c1ccc(OC)cc1 (stereo unspecified),6,-29,nt,2,i,-3,-2,-1
CSc1cccc(NC(=O)c2cnn3ccccc23)c1,-5,-94,nt,-4,i,2,1,-3
Cc1c(CCOC(=O)c2ccc(N3CCOCC3)c([N+](=O)[O-])c2)sc[n+]1CC#N,8,-31,-5,-3,i,0,7,0
Cc1ccccc1N1CCN(CC(=O)Nc2nccs2)CC1,-6,-7,-8,-4,i,3,-2,-2
O=C(NCC1CCCO1)c1cccc(-n2cnnn2)c1 (stereo unspecified),6,11,-4,8,i,0,4,-4
C/C(=N\NC(=O)COc1ccc([N+](=O)[O-])cc1)C(C)(C)C,6,-62,-2,nt,i,2,0,-12
COc1ccc(Sc2nnc(-c3ccccc3)cc2C#N)cc1,-6,nt,-3,6,i,9,-1,3
Cc1ccc(OCCSc2nc3ncnc(N)c3[nH]2)cc1,12,16,nt,nt,i,4,6,0
COc1ccc(S(=O)(=O)Nc2ccc3c(c2)C(=O)N([C@H](C)CO)C[C@H](C)[C@@H](CN(C)S(=O)(=O)c2cccs2)O3)cc1,nt,6[16.7 µM],4&4,-1,nt,0,-2,nt
O=C(CCN1C(=O)c2ccccc2C1=O)NC1=NCCS1,-2,11,-13,-8,i,-2,-2,-4
O=C(CCNS(=O)(=O)c1cccc2nonc12)N1CCN(c2cccc(Cl)c2)CC1,-8,nt,-9,1,i,-3,-5,1
O=C(CNc1ccccc1)c1ccc([N+](=O)[O-])cc1,19,18,nt,-7,i,-5,0,-22
O=C(c1ccco1)N1CCN(C(=O)c2cnn3c(C(F)(F)F)cc(-c4cccs4)nc23)CC1,17,nt,-16,-4,i,5,-1,-8
COC(=O)c1sccc1NC(=O)/C=C\c1ccc(Cl)cc1Cl,-6,nt,-28,nt,nt,5,0,5
CCOC(=O)C1CCCN(C(=O)C2CCCN(S(C)(=O)=O)C2)C1 (stereo unspecified),3,-92,-13,-10,i,0,1,-2
OCC1CCCC(n2cnc3c(=S)nc[nH]c32)O1 (stereo unspecified),7,10,-24,5,i,0,0,-7
COc1cc2c(cc1OC)CN(C(=O)c1ccc(Br)o1)CC2,9,25,nt,-18,i,1,0,-6
COc1ccccc1CNc1n[nH]c(NCc2ccccc2OC)n1,5,nt,-15,1,i,1,0,-6

# Complete entries, looked up by structure. Order of screens: PABP FP inh, Env fusion inh, Yeast UUG start, CSC inhib, Rce1 inhib, MT1-MMP act inh, MT1-MMP act inh RFP, eIF4H inh
# COc1ccccc1CNc1n[nH]c(NCc2ccccc2OC)n1 as listed: 5, nt, -15, 1, i, 1, 0, -6
# CCOC(=O)C1CCCN(C(=O)C2CCCN(S(C)(=O)=O)C2)C1 (stereo unspecified) as listed: 3, -92, -13, -10, i, 0, 1, -2
# OCC1CCCC(n2cnc3c(=S)nc[nH]c32)O1 (stereo unspecified) as listed: 7, 10, -24, 5, i, 0, 0, -7
# O=C(c1ccco1)N1CCN(C(=O)c2cnn3c(C(F)(F)F)cc(-c4cccs4)nc23)CC1 as listed: 17, nt, -16, -4, i, 5, -1, -8
# COC(=O)c1sccc1NC(=O)/C=C\c1ccc(Cl)cc1Cl as listed: -6, nt, -28, nt, nt, 5, 0, 5
